# BJeLR viability: kills HRASV12-expressing BJeLR cells; BJeLR (HRASV12) viability, CellTiter-Glo ATP luminescence, 48 h; reference of the scale not given here; inhibition, % (test concentration not listed); 0.17% of 300,000 active; AID 1554;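 active means replicate mean above 50%; inconclusive means above 50% but judged a plate artefact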;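 further: 50 nL library stock added to about 25 µL; numbers are from one replicate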
# Autofluor counter: counter-screen for toxin protease inhibitors: compound fluorescence; 3.1% of 360,000 active; fluorescence intensity (no concentration beside the values); compound autofluorescence counterscreen, microsphere flow cytometry; stronger effect = higher value;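 active means at least 3 SD above the mean of all compounds, about 16000 in these data; inconclusive means too few beads counted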;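 further: 100 nL of 1 mM stock went into each well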
# Sa RN4220 lethal: kills Staphylococcus aureus RN4220; S. aureus RN4220 growth, OD600, 16 h; inhibition, % (test concentration not listed); 0.33% of 330,000 active; AID 1259311;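 active means z-score of -3 or lower and OD600 up to 0.18 on both plates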;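 further: plate controls were untreated cells for no effect and reference antibiotic for full effect; stock transfer was 100 nL into about 80 µL; one replicate is shown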
# Sa ugtP lethal: growth inhibition of S. aureus ugtP deletion strain | 0.54% of 330,000 active | S. aureus RN4220 ugtP deletion, OD600 growth, 16 h; some inactives read as strong as hits | AID 1259309 | growth inhibition, % (test concentration not listed);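 active means z-score under -3 and OD600 up to 0.15 on both plates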;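 further: plate controls were untreated wells for no effect and antibiotic for full effect; wells of about 80 µL received 100 nL stock; the first replicate is given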
# PrP UTR inh: suppresses PrP 5' UTR mRNA reporter expression; cell-based PrP 5' UTR mRNA reporter, plate reader; inhibition, % (concentration not given with the values); 0.35% of 340,000 active; AID 488862;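 active means every replicate at 50% or more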;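 further: 0 = median of the neutral control wells; tested in H4 reporter cells; numbers are from one replicate; inactives centre near -14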
# Mtb hypoxia rep: inhibitors of hypoxia-regulated fluorescent reporter in Mycobacterium tuberculosis; 0.1% of 300,000 active; M. tuberculosis hypoxia-regulated fluorescent reporter, fluorescence; fluorescence inhibition, % (test concentration not listed); AID 1159583;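 active means 35 to 45% if threefold the growth effect, above 45% if 1.5-fold the growth effect; inactive means the rest, general growth blockers included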;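 further: wells of about 50 µL received 100 nL stock; 0% = vehicle wells and 100% = reference inhibitor wells; whole bacteria with a GFP reporter of the hypoxia response; strong numbers were not always called active; many hits fall short of the cut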
# Mtb hypoxia rep growth: also measured in Mtb hypoxia rep; calls as there; growth inhibition, %; measured here: M. tuberculosis growth (absorbance);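 0% = vehicle and 100% = reference antibiotic; read after six days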
# Numbers without * were called inactive; ? = inconclusive; nt = no result given. Compounds were not picked by outcome; overall some 4% were active at least once.
no.	SMILES	BJeLR viability	Autofluor counter	Sa RN4220 lethal	Sa ugtP lethal	PrP UTR inh	Mtb hypoxia rep	Mtb hypoxia rep growth
1	Cc1nc(C)n(CC(O)COc2ccc3c(c2)CCC3)n1 (stereo not drawn)	2	13376	2.8	0	-14	13	4
2	CCOc1ccc(-c2nc(CSCC(=O)NC3CC3)c(C)o2)cc1	-2	5720	1.2	8	-3	3	1
3	C#CCNC(=O)C1=C[C@@H](c2csc3ccccc23)[C@H](CCCO)[C@@H](OCC)O1	0	3209	nt	nt	-24	nt	nt
4	Cc1ccc(NC(=O)C2CCCN2C(=O)NC2CCCCC2)cc1 (stereo not drawn)	-10	3933	2.7	6	-73	9	4
5	Cc1cc(/C=C2/C(=N)N3C(c4ccccc4)=CSC3=NC2=O)c(C)n1-c1ccccc1	-8	2773	-4.3	1	-28	-5	3
6	COc1cc(OC)c2ccc(=O)oc2c1C(CC(=O)N1CCCC(C)C1)c1ccc2c(c1)OCO2 (stereo not drawn)	6	4018	-1.2	-15	-40	6	4
7	CCC(=O)N(c1nnc(SCC(=O)NN2C(=O)NC3(CCC(C)CC3)C2=O)s1)C1CC1 (stereo not drawn)	nt	3711	0.7	1	7	12	6
8	O=[N+]([O-])c1cccc(S(=O)(=O)N2CCCC2)c1	18	2590	7.5	12	-11	7	-2
9	Cc1c(NC2=C(Cl)C(=O)N(c3ccccc3Cl)C2=O)c(=O)n(-c2ccccc2)n1C	-4	2277	1.5	2	-11	7	0
10	O=C(N/N=C\c1ccc(-c2ccc(Cl)c(Cl)c2)o1)C(=O)N1CCCC1	-8	2454	nt	nt	-81	nt	nt
11	COc1ccc(NC(=O)C(=O)NCCC2CCCCN2S(=O)(=O)c2ccccc2)cc1 (stereo not drawn)	32	4531	4.5	15	-15	2	-2
12	COC(=O)c1ccccc1Oc1ccc(NC(=O)c2ccco2)cc1	-1	3880	4.2	16	-60	13	-7

# A stretch from the list above:
no.	SMILES	BJeLR viability	Autofluor counter	Sa RN4220 lethal	Sa ugtP lethal	PrP UTR inh	Mtb hypoxia rep	Mtb hypoxia rep growth
1	Cc1nc(C)n(CC(O)COc2ccc3c(c2)CCC3)n1 (stereo not drawn)	2	13376	2.8	0	-14	13	4
2	CCOc1ccc(-c2nc(CSCC(=O)NC3CC3)c(C)o2)cc1	-2	5720	1.2	8	-3	3	1

# (further entries)
no.	SMILES	BJeLR viability	Autofluor counter	Sa RN4220 lethal	Sa ugtP lethal	PrP UTR inh	Mtb hypoxia rep	Mtb hypoxia rep growth
13	CCOc1ccccc1-c1nc(-c2ccc(NC(=O)Cc3ccc(OC)cc3)cc2)no1	4	2631	2.8	6	-13	nt	nt
14	O=C(Nc1cccn2ncnc12)C(Cl)Cl	-5	4004	0.7	5	-4	nt	nt
15	COCCNC(=O)Nc1ccc(F)cc1	-1	4356	2.3	8	-23	5	0
16	COc1cc(NC(=O)c2ccc(-c3cccc([N+](=O)[O-])c3)o2)ccc1NC(=O)C(C)C	-1	5761	1.5	-8	-8	6	22
17	COc1ccc(CNC(=O)C(=O)NCC2OCCN2S(=O)(=O)c2ccc(C)cc2)cc1 (stereo not drawn)	6	5956	1.8	-2	-2	-1	10
18	Nc1nnc(SCC(=O)NC2CCCCCCC2)s1	-2	?	2.3	6	-18	7	0
19	O=C(Nc1ccc(S(=O)(=O)N2CCCC2)cc1)c1ccc2c(=O)n3c(nc2c1)CCCCC3	-3	2433	1.5	-12	-4	7	4
20	CCOc1cc(CNCc2ccc(C(=O)O)cc2)ccc1OC	-1	4503	6.4	6	-5	-1	7
21	NCCCC[C@H]1CNC(=S)N1CCc1cccc(F)c1	-9	3145	nt	nt	-29	nt	nt
22	O=C(NCc1ccc(F)cc1)c1cc(S(=O)(=O)N2CCOCC2)ccc1F	8	21187*	4.4	3	-13	14	5
23	CC(C)CCNC(=O)CN(Cc1ccco1)C(=O)CCC(=O)Nc1nccs1	-8	5342	3.7	10	-16	8	8
24	O=C(COc1ccc(Br)cc1Cl)NC1CCN(Cc2ccccc2)CC1	6	6283	-2.1	-4	-33	2	11
25	CN1C(=O)c2cccc3c(Br)ccc(c23)C1=O	0	4334	2.0	2	nt	12	11
26	NS(=O)(=O)c1ccc(NN=Cc2ccc(O)c(O)c2O)c([N+](=O)[O-])c1	nt	nt	7.9	9	nt	23	6
27	O=C(Nc1ccnn1C1CCN(C2CCOCC2)CC1)c1cccc(F)c1	3	5148	-1.0	4	-5	4	-6
28	C=CCNc1nc(Nc2ccc([N+](=O)[O-])cc2)nc(OC)n1	4	2526	1.3	-3	-13	-1	2
29	CS(=O)(=O)N1CCC(C(=O)NCCC2=CCCCC2)CC1	-1	6214	3.7	-1	-44	10	11
30	Nc1cc(C(=O)NN=Cc2cccc([N+](=O)[O-])c2)n[nH]c1=O	nt	nt	1.8	0	nt	13	-1
31	Cc1ccc2[nH]c(=O)c(CN(CCN3CCOCC3)C(=O)Nc3ccccc3F)cc2c1	6	3106	-17	-3	-21	3	7
32	Oc1ccc(NC(=S)Nc2ccc(F)cc2)cc1	-2	4128	-0.3	-3	-6	-10	1
33	Cn1c(=O)c2c(nc(CN3CCN(C(=O)c4ccco4)CC3)n2Cc2cccc(Cl)c2)n(C)c1=O	9	22343*	1.5	-3	-2	-2	11
34	CC(C)(C)NC(=O)CN(Cc1cccs1)C(=O)C1COc2ccccc2O1 (stereo not drawn)	2	23568*	11	-1	-16	11	16
35	CN(C)Cc1c(C#N)c2ccccc2n1C	-12	7946	3.1	9	-1	3	4
36	Cc1cc(C(=O)CN2c3cccc4cccc(c34)S2(=O)=O)c(C)n1C	nt	nt	-1.6	3	nt	7	4
37	COc1cc(C(=O)Nc2nnc(C(C)(C)C)s2)c([N+](=O)[O-])cc1OC	-2	2172	3.1	-7	-12	10	-1
38	CC(/C=N/NC(=O)c1nnn(-c2nonc2N)c1C)=C\c1ccccc1	3	3457	nt	nt	-32	nt	nt
39	O=C(c1ccccc1Cl)N1CCN(S(=O)(=O)c2cccs2)CC1	-2	6012	3.0	2	-4	11	7
40	COc1ccc(OC)c(N=Cc2c(O)[nH]c(=O)[nH]c2=O)c1	0	3724	3.0	4	-13	10	1
41	COc1ccc(N2CC(C(=O)Nc3cccc(S(=O)(=O)N4CCCC4)c3)CC2=O)c(OC)c1 (stereo not drawn)	-3	7408	5.0	-2	-7	9	-1
42	CCCc1cc(-c2n[nH]c(C)c2-c2ccc(C(=O)OCC)o2)c(O)cc1O	7	19356*	4.6	-20	-21	1	13
43	CCOC(=O)C1=C(COC(=O)c2cccc(Br)c2)NC(=O)NC1C (stereo not drawn)	4	5072	-1.3	8	-13	4	-11
44	Cc1cccc(N2CCN(C(=O)COc3ccc4c(c3)CCC4)CC2C)c1 (stereo not drawn)	nt	4369	5.5	8	-3	15	4
45	CC(=O)Nc1c(OC(C)=O)ccc2c(C)cc(=O)oc12	2	2824	-12	-6	-12	9	7
46	COc1ccccc1C(=O)N/C(=C/c1ccc2c(c1)OCO2)C(=O)Nc1ccc(C(=O)O)cc1	-10	4171	-1.4	-1	-2	-3	0
47	N#Cc1c(-c2ccccc2)oc(=O)c2ccccc12	2	3426	2.1	1	-5	6	12
48	Cc1nc2scc(-c3cccs3)c2c(=O)n1CC(=O)O	13	2603	0.2	1	-31	nt	nt
49	Cc1cc(NC(=S)Nc2cccnc2)ccc1Br	8	3061	-26	-4	-10	5	-3
50	c1ccc(N=Nc2cn[nH]c2-c2ccco2)cc1	-1	2184	4.4	14	-35	-2	0
51	COc1ccc(OC)c(S(=O)(=O)Nc2ccc3c(c2)n(C)c(=O)n3C)c1	0	3800	5.8	6	-18	0	-5
52	COc1cccc(-n2c(/C=C/c3ccccn3)nc3ccccc3c2=O)c1	-4	3608	41	1	-15	0	3
53	COc1ccc(Cl)cc1NC(=S)NCc1ccco1	9	23985*	3.2	-2	-34	0	3
54	O=C(N[C@@H](Cc1ccccc1)C(=O)OCC(=O)N1CCOCC1)c1cccs1	-6	3402	8.2	4	-16	4	-4
55	CC(C)CN(C(=O)COC(=O)c1cc(=O)[nH]c2ccccc12)c1c(N)n(Cc2ccccc2)c(=O)[nH]c1=O	nt	4546	3.0	4	-18	-1	6
56	COc1ccc(C(C2C(=O)CC(C)(C)CC2=O)C2C(=O)CC(C)(C)CC2=O)cc1CO	-5	3180	0.4	0	-1	4	-5
57	Cc1ccc(N2C(=O)C(CN3CCCCC3)C2c2ccccc2)cc1 (stereo not drawn)	-10	3292	0.6	0	-35	1	6
58	Cc1c(C=O)c2ccccn2c1C(=O)c1ccncc1	0	20360*	3.1	0	-16	7	4
59	CC(C)(C)CC(=O)NC(=S)NCCc1ccccc1	-6	9640	6.4	7	-22	11	14
60	CCOc1ccc(NC(=O)CSc2nnc(CCNC(=O)c3ccc(OC)cc3)n2C)cc1	3	16470*	1.5	4	-14	0	5
61	COc1ccc(CN2CCCCC2C)cc1OC (stereo not drawn)	6	6110	1.5	6	-26	13	8
62	COC(=O)c1c(C)[nH]c(C(=O)CN2C(=O)NC3(CCOc4ccccc43)C2=O)c1C (stereo not drawn)	nt	6437	1.3	-1	-7	6	8
63	Cc1ccc(C(=O)O)cc1NC(=S)NC(=O)c1ccc(COc2ccccc2)cc1	-7	5453	21	-6	-20	9	13
64	O=C(NCc1ccco1)c1ccccc1Nc1ccc(F)cc1	nt	6602	-1.1	-6	-4	-10	-4
65	CN(C)c1ccc(/C=c2\sc3n(c2=O)CCCN=3)cc1	-1	3373	nt	nt	44	nt	nt
66	Cc1ccc(S(=O)(=O)N(C)C)cc1NC(=S)Nc1ccc2cn[nH]c2c1	10	4082	2.3	7	-15	9	-2
67	COc1ccc(OCC(=O)N2c3ccccc3CCc3ccccc32)cc1	-7	2221	-1.0	-10	-10	18	7
68	CC(NCC(=O)Nc1ccccc1C(=O)NC1CC1)c1ccc(S(C)(=O)=O)cc1 (stereo not drawn)	nt	nt	7.5	13	-9	-5	-5
69	Cc1cccc(OCCn2c(-c3ccco3)nc3ccccc32)c1	-9	4326	4.3	9	1	4	5

# In the list so far, ten have a furan ring, fused or not:
no.	SMILES	BJeLR viability	Autofluor counter	Sa RN4220 lethal	Sa ugtP lethal	PrP UTR inh	Mtb hypoxia rep	Mtb hypoxia rep growth
10	O=C(N/N=C\c1ccc(-c2ccc(Cl)c(Cl)c2)o1)C(=O)N1CCCC1	-8	2454	nt	nt	-81	nt	nt
12	COC(=O)c1ccccc1Oc1ccc(NC(=O)c2ccco2)cc1	-1	3880	4.2	16	-60	13	-7
16	COc1cc(NC(=O)c2ccc(-c3cccc([N+](=O)[O-])c3)o2)ccc1NC(=O)C(C)C	-1	5761	1.5	-8	-8	6	22
23	CC(C)CCNC(=O)CN(Cc1ccco1)C(=O)CCC(=O)Nc1nccs1	-8	5342	3.7	10	-16	8	8
33	Cn1c(=O)c2c(nc(CN3CCN(C(=O)c4ccco4)CC3)n2Cc2cccc(Cl)c2)n(C)c1=O	9	22343*	1.5	-3	-2	-2	11
42	CCCc1cc(-c2n[nH]c(C)c2-c2ccc(C(=O)OCC)o2)c(O)cc1O	7	19356*	4.6	-20	-21	1	13
50	c1ccc(N=Nc2cn[nH]c2-c2ccco2)cc1	-1	2184	4.4	14	-35	-2	0
53	COc1ccc(Cl)cc1NC(=S)NCc1ccco1	9	23985*	3.2	-2	-34	0	3
64	O=C(NCc1ccco1)c1ccccc1Nc1ccc(F)cc1	nt	6602	-1.1	-6	-4	-10	-4
69	Cc1cccc(OCCn2c(-c3ccco3)nc3ccccc32)c1	-9	4326	4.3	9	1	4	5

# Screening results: PubChem BioAssay, several laboratories
